From PubChem BioAssay
Eya2 inh = qHTS Assay for Inhibitors of the Phosphatase Activity of Eya2 | Protein phosphatase EYA2 (Homo sapiens), O00167 | recombinant Eya2, OMFP fluorescence dephosphorylation (OMFP is methylfluorescein phosphate) | Potency, µM (highest dose often 76.9 µM), for inactives: top-dose activity, negative = inhibition, actives largely listed as inhibitors | 330,000 tested, 0.006% active | AID 488837, 2010; further: potency means the concentration at half of the fitted maximal effect
Target sequence (O00167 whole entry, looked up): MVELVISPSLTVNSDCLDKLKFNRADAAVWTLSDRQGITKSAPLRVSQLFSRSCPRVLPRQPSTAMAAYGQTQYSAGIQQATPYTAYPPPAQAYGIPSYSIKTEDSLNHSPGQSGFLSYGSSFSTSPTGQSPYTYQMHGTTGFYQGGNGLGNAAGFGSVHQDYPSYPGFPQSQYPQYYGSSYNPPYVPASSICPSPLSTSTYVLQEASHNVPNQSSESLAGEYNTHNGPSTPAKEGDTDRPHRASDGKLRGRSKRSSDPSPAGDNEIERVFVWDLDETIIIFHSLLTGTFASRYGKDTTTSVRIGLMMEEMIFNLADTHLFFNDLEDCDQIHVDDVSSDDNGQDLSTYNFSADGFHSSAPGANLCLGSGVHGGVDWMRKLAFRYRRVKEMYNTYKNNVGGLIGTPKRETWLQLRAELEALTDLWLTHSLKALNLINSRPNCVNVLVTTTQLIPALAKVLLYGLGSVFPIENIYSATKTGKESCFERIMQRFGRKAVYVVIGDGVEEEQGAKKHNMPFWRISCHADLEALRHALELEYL
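Eya2 (0.2 uM) preincubated 10 min at ambient with compound, then OMFP substrate added at 50 uM; 10 min reaction in 50 mM HEPES pH 7.5, 50 mM NaCl, 5 uM MgCl2, 0.05% BSA, 1 mM DTT. Fluorescence read at Ex 485/Em 525 nm.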
KCNH2 3.1 inh = qHTS for Inhibitors of KCHN2 3.1: Mutant qHTS; Potassium voltage-gated channel subfamily H member 2, brain isoform KCNH2 3.1 (human); 340,000 tested, 0.95% active; AID 720553, 2013; U2OS KCNH2 3.1, thallium flux FluxOr; active compounds read low; activity change, % (tested at about 1.8 µM);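 active means maximum activity change below -70%; inconclusive means maximum activity change from -70% to -50%; inactive means maximum activity change above -50%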;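 further: thallium influx rate constant from kinetic fluorescence after stimulation buffer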
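Measured as rate of thallium-driven FluxOr signal in transduced U2OS cells carrying the 3.1 channel, read kinetically for 2 min upon stimulation; values are rate constants scaled to DMSO control wells.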
USP2a inh = qHTS Assay for Inhibitors of Ubiquitin-specific Protease USP2a Using CHOP2 as the Reporter. USP2 core, Ub-CHOP2 coupled fluorogenic reporter, 485/531. Potency, µM (top dose mostly 38.3 µM), for inactives: top-dose activity change, negative = inhibition, hits mostly inhibitors. 330,000 tested, 0.01% active. AID 463254, 2010;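 further: potency means the concentration at half of the fitted maximal effect; plate controls were DMSO wells for no effect and full inhibition by NEM control for full effect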
Target sequence (O75604 whole entry, looked up): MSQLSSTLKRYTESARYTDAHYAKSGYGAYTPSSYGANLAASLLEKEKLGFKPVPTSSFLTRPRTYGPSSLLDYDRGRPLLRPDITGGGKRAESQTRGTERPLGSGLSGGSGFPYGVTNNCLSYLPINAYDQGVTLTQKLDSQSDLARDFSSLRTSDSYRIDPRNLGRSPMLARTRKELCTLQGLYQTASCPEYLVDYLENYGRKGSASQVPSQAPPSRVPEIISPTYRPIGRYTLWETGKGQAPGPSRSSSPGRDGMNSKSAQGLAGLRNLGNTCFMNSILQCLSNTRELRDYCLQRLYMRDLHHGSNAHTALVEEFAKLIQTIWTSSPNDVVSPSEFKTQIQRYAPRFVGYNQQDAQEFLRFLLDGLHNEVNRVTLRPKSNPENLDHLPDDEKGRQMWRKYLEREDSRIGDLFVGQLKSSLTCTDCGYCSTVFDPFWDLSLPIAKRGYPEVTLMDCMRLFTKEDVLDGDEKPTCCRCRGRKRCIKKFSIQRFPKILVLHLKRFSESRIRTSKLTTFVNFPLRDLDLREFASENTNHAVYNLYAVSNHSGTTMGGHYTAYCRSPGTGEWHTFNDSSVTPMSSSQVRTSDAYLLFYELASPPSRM
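USP2 core (10nM final) preincubated 30min RT with compound in 20mM Tris-HCl pH 8.0, 2mM CaCl2, 2mM beta-mercaptoethanol, 0.05% CHAPS; 25nM Ub-CHOP2 plus 25nM reporter substrate added, fluorescence (Ex485/Em531) read after 60min.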
uPA generation = qHTS for Inhibitors of Cell Surface uPA Generation. Potency, µM (titrated, usually from 38.3 µM), for inactives: at the top dose activity change, negative = inhibition, usual class: inhibitors. cell surface uPA generation assay, qHTS. 330,000 tested, 0.31% active. AID 540303, 2011; active means well fitted inhibition curve with a large enough effect; inconclusive means small, poorly fitted or top-dose-only effect; inactive means no such curve, though single readings can be large or run the other way; tested in mouse RAW 264.7 cells; further: potency means the concentration at half of the fitted maximal effect; nearly all actives have a fitted effect of over 55% in size
Coupling enz = qHTS Assay for Inhibitors of Fructose-1,6-bisphosphate Aldolase from Giardia Lamblia: Coupling assay counterscreen; coupling enzyme system counterscreen, AmpLite Red fluorescence; activity change, negative = inhibition, % at 58.2 µM, hits read low; 290,000 tested, 0.67% active; in the data active means activity change below about -30%
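Fluorescence at 525 nm excitation and 598 nm emission measured inhibition of the coupled detection system without aldolase. Compounds (at 57.5 uM final) were preincubated 10 min at room temperature with coupling enzyme reagent before a 20 min substrate/AmpLite Red step.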
Chronic BCR inh = qHTS Assay to Find Inhibitors of Chronic Active B-Cell Receptor Signaling; ABC-DLBCL IkBa-CBG/CBR reporter, luminescence ratio, 4 h; Potency, µM (highest dose often 46.1 µM), without a hit: at the top dose ratio change, negative = lower green/red ratio, hits mostly inhibitors; 340,000 tested, 0.05% active; active means well fitted inhibition curve with a large enough effect in the signal ratio, with a control signal flat, not every such curve was filed as active; inconclusive means small, poorly fitted or top-dose-only effect, or effect the other way, or a change in a side signal; the % refers to the signal ratio;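 further: potency means the concentration at half of the fitted maximal effect; plate controls were basal doxycycline-induced cells for no effect and cells given 10 µM MG132 for full effect; MG132 reads +100%, hits lower the ratio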
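Compounds up to 46 uM were incubated four hours with TMD8 cells whose green CBG68 luciferase is fused to IkappaBalpha; red CBR luminescence normalised the signal, and concentration-effect curves were fitted to fusion, red and ratio data.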
GALK inhibitor = qHTS Assay for Inhibitors of Human Galactokinase (GALK) | P51570 | Purified GALK, Kinase-Glo residual ATP luminescence | Potency, µM (doses to about 57.5 µM), for the others: at the highest dose activity change, negative = inhibition, actives largely listed as inhibitors | 270,000 tested, 0.007% active | AID 1868, 2009; further: potency means the concentration at half of the fitted maximal effect
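Quantitative HTS: GALK 5 nM, ATP 35 uM, galactose 100 uM, 1 h room temperature, then luciferase-based ATP detection.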
B2AR arrestin = qHTS assay of beta-arrestin-biased ligands of beta2-adrenergic receptor. beta-arrestin recruitment to beta2AR, cell-based reporter. Potency, µM (top dose mostly 46.1 µM), for inactives: at the top dose activation, hits mostly activators. 330,000 tested, 0.02% active;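 further: potency means the concentration at half of the fitted maximal effect; 0% = DMSO controls and full agonism = EC100 isoproterenol or metaproterenol; nearly all actives have a fitted effect of over 65% in size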
Giardia killer = Small Molecules that selectively kill Giardia lamblia: qHTS. Giardia lamblia trophozoite viability. activity change, % at 7.66 µM, hits read low. 340,000 tested, 0.15% active; in the data active means activity change below about -80%; inconclusive means between about -30% and that limit;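 further: parasites exposed to compound for two days anaerobically before the ATP read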
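Giardia trophozoites, 100 cells per well, were exposed to compounds for 48 hrs at 37 deg C under anaerobic conditions; viability was then read as ATP content by bioluminescence after 15-30 min at room temperature.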
hERG WT inh = qHTS for Inhibitors of KCHN2 3.1: Wildtype qHTS | activity change, % at 1.84 µM | U2OS, BacMam KCNH2, thallium flux FluxOr; active compounds read low | 340,000 tested, 0.37% active;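 active means maximum activity change below -70%; inconclusive means maximum activity change between -70% and -50%; inactive means maximum activity change above -50%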
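U2OS cells were transduced with wild-type KCNH2 virus (2.03 x 10^8 / mL) for 4 h at room temperature, then cultured overnight at 37 C. Thallium flux was read with FluxOr dye. Rate constants were normalized to DMSO controls.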
Active calls of the source: *; [ ] = remark or other dose. Unless noted, the call rests on the fitted dose curve; in most records, active means well fitted curve in the direction sought with a large enough effect; inconclusive means small, poorly fitted or top-dose-only effect, or another doubt; inactive means no such curve, though single readings can be large; an effect the other way counts as inactive or inconclusive. Unless noted, on the % scale 0 is the no-effect control and ±100 the full control effect. The list is partial (hit frequency here may not be typical).

`CC(=O)Cn1cnc2scc(-c3ccc(C)c(C)c3)c2c1=O` gave Eya2 inh -7%, KCNH2 3.1 inh -17, USP2a inh 0%, uPA generation -3%, Coupling enz 0, Chronic BCR inh -3%, GALK inhibitor 0%, B2AR arrestin -0.6%, Giardia killer 44[activator] and hERG WT inh 6.
Screening COC(=O)c1ccc(S(=O)(=O)N2CCC(O)CC2)n1C returned Eya2 inh -4%, KCNH2 3.1 inh 6, USP2a inh 0%, uPA generation 7%, Coupling enz 0, Chronic BCR inh 0%, GALK inhibitor 1%, B2AR arrestin -0.8%, Giardia killer 4 and hERG WT inh 2.
O=C(N/C(=N\O)c1ccccc1)Nc1ccc(Cl)cc1 was read as Eya2 inh 4%, KCNH2 3.1 inh 14, USP2a inh 2%, uPA generation -7%, Coupling enz 0, Chronic BCR inh inconclusive, GALK inhibitor -1%, B2AR arrestin -0.2%, Giardia killer -9 and hERG WT inh 5.
Cc1ccc(CNC(=O)NC23CC4CC(CC(C4)C2)C3)cc1 was read as Eya2 inh 0%, KCNH2 3.1 inh -1, USP2a inh -2%, uPA generation 9%, Coupling enz 2, Chronic BCR inh 1%, GALK inhibitor 2%, B2AR arrestin -0.4%, Giardia killer 37[activator] and hERG WT inh 1.
For Cc1cnc(NC(=O)CSC(=S)N2CCOCC2)s1 the results were Eya2 inh 5%, KCNH2 3.1 inh 1, USP2a inh -4%, uPA generation 1%, Coupling enz 2, Chronic BCR inh inconclusive, GALK inhibitor -1%, B2AR arrestin -0.3%, Giardia killer 4 and hERG WT inh -15.
Screening C/C=C\C(=O)Nc1cccc(C2=NOC3(C2)C[C@H](C(N)=O)N(C(=O)/C=C/CC)C3)c1 (stereo not given in full) returned Eya2 inh 0%, KCNH2 3.1 inh 12, USP2a inh 9%, uPA generation 3%, Coupling enz 0, Chronic BCR inh -4%, GALK inhibitor 0%, B2AR arrestin -0.5%, Giardia killer 3 and hERG WT inh 11.
Screening O=C(c1ccc(S(=O)(=O)N2CCCCC2)cc1)c1nnc(-c2ccc(Cl)cc2)o1 returned Eya2 inh 10%, KCNH2 3.1 inh 16, USP2a inh 0%, uPA generation 1%, Coupling enz 2, Chronic BCR inh -1%, GALK inhibitor 2%, B2AR arrestin -1.1%, Giardia killer 14 and hERG WT inh 20.
CCOc1ccccc1NC(=O)N1CCc2ccccc2C1 was read as Eya2 inh -14%, KCNH2 3.1 inh -19, USP2a inh -6%, uPA generation -4%, Chronic BCR inh inconclusive, GALK inhibitor -5%, B2AR arrestin -0.8%, Giardia killer 3 and hERG WT inh -1.
`CCc1cccc(CC)c1NC(=O)CO/N=C(\C)c1cccs1` gave Eya2 inh -15%, KCNH2 3.1 inh 9, USP2a inh 2%, uPA generation 3%, Coupling enz 1, Chronic BCR inh inconclusive, GALK inhibitor 4%, B2AR arrestin -0.1%, Giardia killer 9 and hERG WT inh 0.
COC(=O)c1cc2oc(C)cc2n1CC(=O)N(C)c1ccccc1 was read as Eya2 inh -7%, KCNH2 3.1 inh 4, USP2a inh 0%, uPA generation -2%, Coupling enz 2, Chronic BCR inh inconclusive, GALK inhibitor 2%, B2AR arrestin -0.1%, Giardia killer -16 and hERG WT inh 2.
COc1nc(Oc2ccc(C(=O)OCC(N)=O)cc2)nc(N(C)C)n1 was read as Eya2 inh 18%, KCNH2 3.1 inh 22, USP2a inh 1%, uPA generation -6%, Coupling enz 2, Chronic BCR inh -1%, GALK inhibitor 3%, B2AR arrestin 0.1%, Giardia killer 5 and hERG WT inh 9.
`CCOc1ccc(N2C(=O)CC(Cc3cc(C)cc(C)c3)C2=O)cc1` (stereo not given) gave Eya2 inh 9%, KCNH2 3.1 inh 1, USP2a inh 1%, uPA generation 16%, Coupling enz -5, Chronic BCR inh 0%, GALK inhibitor 0%, B2AR arrestin 2.1%, Giardia killer 38[activator] and hERG WT inh -10.
Cc1ccc(C(=O)CNc2cccc(Cl)c2)cc1 was read as Eya2 inh -6%, KCNH2 3.1 inh -4, USP2a inh 0%, uPA generation 1%, Coupling enz 1, Chronic BCR inh inconclusive, GALK inhibitor -1%, B2AR arrestin 0.0%, Giardia killer 9 and hERG WT inh -1.
For O=C(N/C(=C/c1cccc([N+](=O)[O-])c1)C(=O)N1CCCCCC1)c1cccs1 the results were Eya2 inh -5%, KCNH2 3.1 inh 0, USP2a inh 0%, uPA generation 1%, Coupling enz -4, Chronic BCR inh -2%, GALK inhibitor 2%, B2AR arrestin 0.1%, Giardia killer -3 and hERG WT inh -3.
CN1CCN(C(=O)/C(=C\c2ccccc2)c2ccccc2)CC1 was read as Eya2 inh 16%, KCNH2 3.1 inh -13, USP2a inh -6%, uPA generation 2%, Coupling enz 0, Chronic BCR inh 5%, GALK inhibitor 0%, B2AR arrestin -0.1%, Giardia killer -5 and hERG WT inh 51.
`N=c1c2c(-c3ccccc3)c(-c3ccccc3)oc2ncn1CCN1CCOCC1` gave Eya2 inh -5%, KCNH2 3.1 inh -24, USP2a inh -14%, uPA generation 0%, Coupling enz -3, Chronic BCR inh inconclusive, GALK inhibitor 9%, B2AR arrestin 0.0%, Giardia killer -12 and hERG WT inh 9.
Screening CCn1c(SCC(=O)Nc2cccc(OC)c2)nnc1-c1ccc(Cl)cc1 returned Eya2 inh 20%, KCNH2 3.1 inh 10, USP2a inh 2%, uPA generation 5%, Coupling enz 2, Chronic BCR inh -1%, GALK inhibitor 4%, B2AR arrestin -1.0%, Giardia killer 19 and hERG WT inh -9.
`CCCC(C(=O)NC1CCCCC1)N(Cc1ccco1)C(=O)CNS(=O)(=O)c1ccccc1` (stereo not given) gave Eya2 inh -25%, KCNH2 3.1 inh -2, USP2a inh 1%, uPA generation 0%, Coupling enz -2, Chronic BCR inh inconclusive, GALK inhibitor 0%, B2AR arrestin -0.3%, Giardia killer 0 and hERG WT inh 0.
O=[N+]([O-])c1ccc(S(=O)(=O)N2CCN=C2SCc2cccnc2)cc1 was read as Eya2 inh 7%, KCNH2 3.1 inh 10, USP2a inh 0%, uPA generation -6%, Coupling enz 1, Chronic BCR inh inconclusive, GALK inhibitor 0%, B2AR arrestin 0.0%, Giardia killer -27 and hERG WT inh -2.
Screening O=C(O)c1ccc(Oc2c(C(F)(F)F)oc3cc(O)ccc3c2=O)cc1 returned Eya2 inh -7%, KCNH2 3.1 inh 14, USP2a inh 0%, uPA generation 0%, Coupling enz 13, Chronic BCR inh 1%, GALK inhibitor 5%, B2AR arrestin -0.3%, Giardia killer 10 and hERG WT inh -1.
For COC(=O)c1ccc(NC(=O)Cn2nc(C)cc2C)cc1 the results were Eya2 inh 1%, KCNH2 3.1 inh 8, USP2a inh 0%, uPA generation 0%, Coupling enz -1, Chronic BCR inh -20%, GALK inhibitor 1%, B2AR arrestin 0.3%, Giardia killer -8 and hERG WT inh 2.
O=C(Nc1cccc(Cl)c1N1CCOCC1)c1ccc([N+](=O)[O-])o1 was read as Eya2 inh -14%, KCNH2 3.1 inh 2, USP2a inh 6%, uPA generation -5%, Coupling enz 3, Chronic BCR inh 0%, GALK inhibitor 4%, B2AR arrestin -0.4%, Giardia killer -86* and hERG WT inh -1.
For Cc1cc(NCCCO)n2c(nc3ccccc32)c1C#N the results were Eya2 inh 0%, KCNH2 3.1 inh -7, USP2a inh 0%, uPA generation 2%, Coupling enz 2, Chronic BCR inh 7%, B2AR arrestin -0.6%, Giardia killer 8 and hERG WT inh inactive.
Clc1cc2nc[nH]c2cc1Cl was read as Eya2 inh 2%, KCNH2 3.1 inh -25, USP2a inh 2%, uPA generation -5%, Coupling enz 0, Chronic BCR inh -1%, GALK inhibitor 4%, B2AR arrestin -0.9%, Giardia killer 3 and hERG WT inh -5.
For O=C(N/N=C/c1ccc2c(c1)OCO2)/C(=C/c1ccc2c(c1)OCO2)NC(=O)c1ccccc1 the results were Eya2 inh -9%, KCNH2 3.1 inh -9, USP2a inh 2%, uPA generation -2%, Coupling enz 6, Chronic BCR inh 1%, GALK inhibitor 2%, B2AR arrestin 0.2%, Giardia killer 2 and hERG WT inh -7.
For Cc1oc2c(CN3CCCC3)c(O)ccc2c(=O)c1-c1ccc(Cl)cc1 the results were Eya2 inh 0%, KCNH2 3.1 inh -5, USP2a inh 1%, uPA generation 4%, Coupling enz 0, Chronic BCR inh -7%, GALK inhibitor 0%, B2AR arrestin -0.4%, Giardia killer 8 and hERG WT inh 0.
CCC(C)(C)C(=O)Nc1nnc(CCc2ccccc2)s1 was read as Eya2 inh -17%, KCNH2 3.1 inh -33, USP2a inh 3%, uPA generation 8%, Coupling enz 2, Chronic BCR inh 7%, GALK inhibitor 0%, B2AR arrestin -0.3%, Giardia killer inconclusive and hERG WT inh -6.
COc1ccc(C2C(C#N)=C(N)Oc3cc(N)ccc32)cc1 (stereo not given) was read as Eya2 inh 12%, KCNH2 3.1 inh 22, USP2a inh 1%, uPA generation 5%, Coupling enz 4, Chronic BCR inh 0%, GALK inhibitor -3%, B2AR arrestin -0.6%, Giardia killer 1 and hERG WT inh -13.
COc1ccc(OC)c(-c2oc3ccccc3c(=O)c2O)c1 was read as Eya2 inh 3%, KCNH2 3.1 inh 1, USP2a inh -4%, uPA generation -11%, Coupling enz 1, Chronic BCR inh -14%, GALK inhibitor -6%, B2AR arrestin -0.8%, Giardia killer 2 and hERG WT inh 9.
